Source: PubChem
Arbovirus inh: antivirals against arbovirus infection, primary screen, cell-based, full library, 10K replicate subset | arbovirus infection cell-based antiviral screen | inhibition, % at 10 µM | actives 0.37% (n = 200,000);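 active = inhibition from about 30%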;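 note: bluetongue infection of BSR cells; cell survival read as ATP light after 72 h; 0% = infected wells without compound and 100% = uninfected wells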
YopH PTP inh: YopH tyrosine phosphatase inhibitors, primary screen, biochemical, fluorescence Ex485/Em525; YopH tyrosine phosphatase [Yersinia enterocolitica]; inhibition, %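 (about 10 µM by stock and volumes)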; actives 0.16% (n = 140,000); AID 898, 2007;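 active = inhibition of 50% or more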;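 note: controls were vehicle for no effect and minimum signal wells for full effect; inactives centre near -20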
Mtb growth: M. tuberculosis H37Rv growth inhibitors, H37Rv strain (AID 1626). M. tuberculosis H37Rv growth inhibition; higher % means a stronger effect. inhibition, % at 10 µM; hits with a dose series show IC50 in µM. actives 0.95% (n = 220,000);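 active = confirmed in a dose series; inconclusive = inhibition above 80% but not taken into the dose series; inactive = below 80% or under 30% at every dose of the series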;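 note: bacteria incubated seven days before Alamar blue readout; 0% = bacteria only wells and 100% = bacteria with antibiotic wells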
Mtb bLac sens: beta-lactam sensitization of Mtb H37Rv, H37Rv; M. tuberculosis H37Rv growth with meropenem, percent inhibition; hits of this screen are not shown here; inhibition, % at 25 µM; actives 0.27% (n = 330,000); AID 434955, 2010;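 active = about 74% or more and at least 40 points above the plate without the antibiotic, then above 30% in a dose series; inconclusive = first-round hits that could not be retested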;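 note: growth measured after seven days incubation then overnight dye step; 0% = bacteria only wells and 100% = bacteria with antibiotic; twin plates without the antibiotic show which effects depend on it; some results filed as inactive read as strong as hits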
RecA intein inh: Mtb RecA intein splicing inhibitors, primary screen, biochemical, fluorescence, HTS | actives 0.75% (n = 290,000) | cell-free RecA intein splicing | AID 2221, 2009 | Protein RecA (Mycobacterium tuberculosis (strain ATCC 25618 / H37Rv)), P9WHJ3 | inhibition, %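 (about 9 µM by stock and volumes)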; in the data active = inhibition above about 30%; inconclusive = no clear call, values can overlap the other calls;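 note: 0% = vehicle wells and 100% = reference inhibitor control wells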
Target sequence (P9WHJ3 whole entry, looked up): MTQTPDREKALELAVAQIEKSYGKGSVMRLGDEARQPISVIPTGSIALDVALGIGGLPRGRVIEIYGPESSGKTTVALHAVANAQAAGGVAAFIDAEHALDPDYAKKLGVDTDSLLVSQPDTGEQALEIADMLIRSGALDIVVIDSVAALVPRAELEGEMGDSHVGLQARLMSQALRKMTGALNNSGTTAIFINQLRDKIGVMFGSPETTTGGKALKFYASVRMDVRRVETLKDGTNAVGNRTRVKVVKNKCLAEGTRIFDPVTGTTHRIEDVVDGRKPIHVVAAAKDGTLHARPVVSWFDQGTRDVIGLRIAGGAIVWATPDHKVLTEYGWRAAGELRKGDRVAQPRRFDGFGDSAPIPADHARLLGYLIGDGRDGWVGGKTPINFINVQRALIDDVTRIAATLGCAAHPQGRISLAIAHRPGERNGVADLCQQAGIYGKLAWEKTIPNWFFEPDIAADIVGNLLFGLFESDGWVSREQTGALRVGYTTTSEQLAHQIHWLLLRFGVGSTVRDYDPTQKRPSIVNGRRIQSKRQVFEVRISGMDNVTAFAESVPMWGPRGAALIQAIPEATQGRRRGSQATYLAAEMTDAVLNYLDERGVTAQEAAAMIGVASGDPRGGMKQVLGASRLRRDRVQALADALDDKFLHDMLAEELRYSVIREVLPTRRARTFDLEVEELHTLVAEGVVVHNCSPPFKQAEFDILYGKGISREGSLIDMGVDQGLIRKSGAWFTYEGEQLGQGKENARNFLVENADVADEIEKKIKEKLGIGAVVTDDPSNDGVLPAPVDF
Arbovirus inh repeat: second read-out of Arbovirus inh, no call of its own (marks repeat the call); inhibition, %; measured here: 10K subset replicate screen; many hits read low in the repeat;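 first of two repeat runs on a subset; 0% = infected and 100% = uninfected wells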
Starred values were filed as active, the others as inactive; u = inconclusive; x = no result given.

SMILES | Arbovirus inh | YopH PTP inh | Mtb growth | Mtb bLac sens | RecA intein inh | others
CCn1c(COc2ccccc2C)nnc1SCC(=O)NCc1ccccc1 | -22 | -27 | -7% | -8 | -0.7
CN(CCO)S(=O)(=O)c1ccc2c(c1)C(=NN)c1cc(S(=O)(=O)N(C)CCO)ccc1-2 | x | x | x | 5 | 0.6
Cc1c(C(=O)OCC(=O)Nc2c(C)n(C)n(-c3ccccc3)c2=O)oc2ccccc12 | 2 | x | -6% | -12 | -2.4
CCc1ccc(NC(=S)N(CCN2CCOCC2)Cc2ccccc2F)cc1 | 11 | x | -7% | -5 | -4.1
CCC(C)Sc1nc2c([nH]c3ccccc32)c(=O)n1C (configuration not stated) | -2 | -19 | 12% | 4 | -2.1 | Arbovirus inh repeat=-9
Cc1cc(C)c2c(SC(C)C)nc(N)nc2n1 | x | x | -2% | 0 | -1.3
CC(=O)NC(=S)Nc1sc2c(c1C(N)=O)CCC(C)C2 (configuration not stated) | -4 | x | -1% | -15 | -2.4
C=C1CCC(OC(C)=O)C2(C)CCC3C(C)C(=O)OC3C12O (configuration not stated) | x | x | x | 5 | -2.9
CC(=O)Nc1ccc(S(=O)(=O)C(C#N)c2nc3ccccc3nc2NCCN2CCOCC2)cc1 (configuration not stated) | -4 | x | 2% | -8 | -7.8
CC(=O)Oc1ccc(N(C(C)=O)S(=O)(=O)c2cccs2)c2ccccc12 | -33 | -3 | -4% | 23 | 11
Cc1cccc2c(C(=O)Nn3cnnc3)cc(-c3ccccc3Cl)nc12 | -1 | x | 1% | -6 | 0.9
COc1ccc(S(=O)(=O)N2CCCOC2CNC(=O)C(=O)NCc2ccncc2)cc1 (configuration not stated) | x | x | x | -9 | 0.9
Cc1cc(C)nc(NS(=O)(=O)c2ccc(NC(=O)C3CC(=O)N(c4ccccc4)C3)cc2)n1 (configuration not stated) | 2 | -47 | 3% | 5 | 0.0 | Arbovirus inh repeat=5
O=C(Nc1ccccc1SCC1CSc2nc3ccccc3c(=O)n21)c1ccccc1Cl (configuration not stated) | 5 | -32 | 3% | -13 | -0.5
CCOc1cc(-c2nc3ccccn3c2NCC2CCCO2)ccc1O (configuration not stated) | -1 | -14 | 0% | 12 | -34
COc1ccc(-n2c(SCC(=O)Nc3ccccc3)nc3c(c2=O)SCC3)cc1 | 8 | -34 | 6% | -9 | 5.1 | Arbovirus inh repeat=1
Cc1nn(CCOc2cccc(Br)c2)c(C)c1[N+](=O)[O-] | 1 | x | 7% | 27 | -1.0
Cc1ccc(-c2nn(-c3cccc(F)c3)cc2CNCCc2ccncc2)o1 | -6 | x | 8% | 2 | -15
COCCNC(=O)c1cc2oc3ccccc3c2n1C | -10 | -2 | -2% | -6 | 2.1
CCOC(=O)N1CCN(CC(=O)c2ccc(O)c(C)c2O)CC1 | x | x | x | -4 | -4.2
CCOc1ccc(-c2[nH]ncc2-c2ccc(OC)c(OC)c2)c(O)c1 | -18 | -35 | 3% | 11 | x
CC(C)Oc1ccc(C(=O)N2CCCC2C(=O)O)cc1 (configuration not stated) | 1 | -40 | -10% | 2 | x
CCOC(=O)CSc1ccc(C(=O)N2CCN(C)CC2)cc1[N+](=O)[O-] | 7 | x | -4% | 2 | 1.0
COc1ccc(C(=O)Nc2nnc(S(=O)(=O)N3CCC(C)CC3)s2)cc1OC | x | x | x | 1 | -4.5
COc1ccc(OC(=O)Nc2ccccc2)cc1 | -8 | -20 | 0% | 7 | -1.1
The listing continues.
SMILES | Arbovirus inh | YopH PTP inh | Mtb growth | Mtb bLac sens | RecA intein inh | others
COc1ccc(NC2=NC(=S)N(c3ccc(C)cc3)C23CCCCC3)cc1 | -12 | -32 | -6% | -9 | -1.1
CCCNC(=O)c1ccc(N2CCC3(CC2)CC(c2cccc(Br)c2)=NO3)c([N+](=O)[O-])c1 | x | x | x | 98 | 5.0
CCN(CC)C(=O)c1sc(N)c(C(=O)OC(C)C)c1C | -3 | -14 | -5% | 3 | 13
C1CCC(c2nn3c(-c4n[nH]c5c4CCC5)nnc3s2)CC1 | 11 | -50 | 9% | 13 | 4.5
S=c1nc(SCc2ccccc2)[nH]c2ccccc12 | 5 | x | 60% | 7 | 6.0
O=C(Cn1cnc(Cl)c1Cl)c1ccccc1 | 4 | x | 1% | 3 | 0.7
COc1cccc(CC(=O)N2CCCC(CO)(Cc3ccc(F)cc3F)C2)c1 (configuration not stated) | x | x | x | 4 | 6.6
Cc1ccc(-c2noc(CNC(=O)COc3ccccc3C)n2)cc1 | x | x | x | 14 | 6.0
Cc1nn(-c2ccccc2)c(/N=C/c2ccc(O)cc2)c1-c1ccccc1 | 12 | -25 | -1% | 9 | 3.4
CCOc1ccc(-n2c(C)c(C(C)=O)c3cc(O)ccc32)cc1 | x | x | x | -2 | 0.4
C=C1C(=O)[C@@]23[C@H](O)C[C@@H]4C(C)(C)CC[C@H](O)[C@@]4(C)[C@@H]2CC[C@@H]1[C@H]3O | -37 | -31 | 8.6µM* | 100 | -4.7
CCOc1ccc(C(=O)Nc2ccc3c(c2)C(=O)NC3=O)cc1 | x | x | x | 1 | -6.9
CNS(=O)(=O)c1cccc(C(=O)Nc2cccnc2)c1 | 0 | -24 | -4% | -15 | -0.4
Cc1ccc(S(=O)(=O)N2CCOC2CNC(=O)C(=O)NCCc2ccccc2)cc1 (configuration not stated) | x | x | -5% | 4 | -1.7
CCN(CC)S(=O)(=O)c1ccc2c(c1)nc(CCC(=O)Nc1ccc3c(c1)OCO3)n2C | -11 | -35 | -2% | -1 | 2.4
Cc1ccc(C)c(C(=O)NC2CC(C)(C)NC(C)(C)C2)c1 | -6 | -25 | -7% | -9 | -4.1
Cc1ccc(C(=O)C(C)OC(=O)CN2C(=O)NC3(CCCC3)C2=O)cc1 (configuration not stated) | x | x | x | -14 | 1.9
Cc1ccc(C(=O)/C=C/c2ccc3c(c2)OCO3)o1 | -8 | -40 | 2% | 5 | 1.2
CC(C)c1nc(SCC(=O)Nc2ccc3c(c2)OCO3)n[nH]1 | -9 | -26 | 62% | 84 | -0.9
CCn1ccnc1C(O)c1ccc(N(C)C)cc1 (configuration not stated) | -3 | -7 | 6% | 8 | 6.9
CCc1c(C)nc(N)nc1N1N=C1SC | 3 | -27 | -4% | 0 | -0.1
CCOC(=O)c1c(C)n(OCc2ccccc2)c2ccc3c(no[n+]3[O-])c12 | 4 | -26 | -4% | 7 | 1.2 | Arbovirus inh repeat=-6
O=C(c1ccccc1)N1CCN(c2ccc([N+](=O)[O-])c(NCc3cccnc3)c2)CC1 | 4 | 15 | 12% | 5 | 9.1
O=C(CN1C(=O)NC(Cc2c[nH]c3ccccc23)C1=O)Nc1cccc(S(=O)(=O)N2CCOCC2)c1 (configuration not stated) | x | x | 6% | -6 | 0.2
Cc1cc(C)c(NC(=O)c2ccc(S(=O)(=O)N(C)C)cc2)c(C)n1 | 8 | 0 | -5% | 1 | 7.5
More compounds follow:
SMILES | Arbovirus inh | YopH PTP inh | Mtb growth | Mtb bLac sens | RecA intein inh | others
CC(=O)C1=C(O)C(=O)N(CCC(=O)O)C1c1ccccc1[N+](=O)[O-] (configuration not stated) | 1 | x | -11% | 0 | -7.1
O=[N+]([O-])c1cc(-c2n[nH]c(-c3ccccc3)n2)cc([N+](=O)[O-])c1 | 1 | -20 | 28µM* | 98 | -3.9
COC(=O)C(=Cc1ccc(OCc2ccc([N+](=O)[O-])cc2)c(OC)c1)C(=O)OC | 0 | -30 | 10% | 81 | 12
COc1cccc(OC)c1/C(O)=C(\C#N)c1nc2ccccc2[nH]1 | 2 | -38 | -1% | 12 | 1.4
COc1cc(CC(=O)OCC(=O)NC2CCCCC2)cc(OC)c1OC | 5 | x | 1% | 0 | -1.7
CCOC(=O)NC(=O)CSc1nc2ccc(OCC)cc2[nH]1 | 7 | -1 | x | 6 | -0.7
O=C(N=Nc1c(O)[nH]c2ccc([N+](=O)[O-])cc12)c1ccccc1Cl | x | x | -11% | 4 | 2.5
COC(=O)c1ccc(OCC(O)CN2C(=O)NC(C)(C)C2=O)cc1 (configuration not stated) | 6 | -51 | -2% | x | 0.7
Cc1nc2ccc(N3C(=O)CCC3=O)cc2[nH]1 | 4 | -7 | -7% | -16 | -2.2
CNC(=O)NC(=O)CSc1nc(-c2cccs2)c(C#N)c(=O)[nH]1 | 2 | x | -8% | x | 1.5
Cc1ccc(C2c3sc(=O)[nH]c3SC3C(=O)NC(=O)C32)cc1 (configuration not stated) | -3 | -36 | -9% | -7 | -1.2
CCCN1Cc2cccc(C(=O)Nc3ccc(CN4CCCC4)cc3)c2C1=O | -18 | -11 | -5% | -1 | 4.8
O=C(CCCc1ccccc1)Nc1ccc(Br)cc1F | x | x | x | -5 | 2.1
Cc1ccc(OCCCCN2CCCCC2)cc1 | x | x | x | -4 | -3.3
COc1ccccc1Nc1nnc(SCc2cc(=O)n3cc(C)ccc3n2)s1 | -4 | 5 | 9% | -9 | x
Cc1ccc(-c2cc(C(=O)N3CCCCCC3)no2)cc1 | x | x | x | -1 | 5.0
CCC(CO)(C(=O)OC1C[N+]2(C)CCC1CC2)c1ccccc1 (configuration not stated) | 6 | x | 2% | 0 | 0.2
N#Cc1cc(N)c(Nc2ccccc2)cc1C#N | 17 | -33 | 3% | 1 | 0.8
COc1ccc(/C=N\NC(=O)CNC(=O)C(c2ccccc2)c2ccccc2)cc1[N+](=O)[O-] | 3 | -20 | -1% | -3 | 4.6
CN(c1ccccc1)S(=O)(=O)c1ccc(C(=O)Nc2ncccc2O)cc1 | x | x | x | 0 | 3.9
CCOC(=O)C1=NOC(CNC(=O)c2c(-c3ccccc3Cl)noc2C)C1 (configuration not stated) | 2 | 6 | -4% | -5 | 0.3
CS/C(N)=N/N=C/c1cc(C)ccc1O | x | x | u | 99 | -2.6
COc1ccc(CC(=O)N2CCN=C2SC)cc1OC | 1 | x | 5% | -7 | -2.0
Fc1nc(N2CCCC2)c(F)c(Oc2ccccc2Oc2c(F)c(F)nc(N3CCCC3)c2F)c1F | 3 | -4 | -4% | 3 | 0.1
CN1CCN(CCNC(=O)c2cc3c(=O)n(C)c4ccccc4c3n2C)CC1 | 8 | 0 | 3% | -5 | 0.4 | Arbovirus inh repeat=6

Taken from above for reference:
SMILES | Arbovirus inh | YopH PTP inh | Mtb growth | Mtb bLac sens | RecA intein inh | others
N#Cc1cc(N)c(Nc2ccccc2)cc1C#N | 17 | -33 | 3% | 1 | 0.8
COc1ccc(/C=N\NC(=O)CNC(=O)C(c2ccccc2)c2ccccc2)cc1[N+](=O)[O-] | 3 | -20 | -1% | -3 | 4.6
CN(c1ccccc1)S(=O)(=O)c1ccc(C(=O)Nc2ncccc2O)cc1 | x | x | x | 0 | 3.9
CCOC(=O)C1=NOC(CNC(=O)c2c(-c3ccccc3Cl)noc2C)C1 (configuration not stated) | 2 | 6 | -4% | -5 | 0.3
CS/C(N)=N/N=C/c1cc(C)ccc1O | x | x | u | 99 | -2.6

More records
SMILES | Arbovirus inh | YopH PTP inh | Mtb growth | Mtb bLac sens | RecA intein inh | others
Cn1c(SCC(=O)c2ccc(F)cc2)nnc1-c1cnccn1 | 4 | -47 | -15% | 9 | -2.4
CC1C(c2ccccc2)N(C)C(c2ccccc2)CC1(O)c1ccc(F)cc1 (configuration not stated) | -29 | x | u | 94 | 14
CC1(C)CN(c2cccc(C#N)c2)C1=O | 5 | x | 2% | -5 | -3.7
CCOc1ccc(NCc2cccn2-c2nnc(N3CCC(C(=O)NCCCN4CC(C)CC(C)C4)CC3)s2)cc1 (configuration not stated) | x | x | x | 94 | 1.6
COc1ccc(-c2noc(CCCC(=O)Nc3ccc(C(N)=O)cc3)n2)cc1 | -4 | -25 | -9% | -5 | 1.8
Cc1cccc(C)c1NC(=O)Cn1cnc2c(=O)n(C)c(=O)n(C)c21 | 10 | -30 | -9% | -7 | 1.7
O=C(O)c1ccc(Cl)c(S(=O)(=O)N2CCCCCC2)c1 | 4 | -35 | -3% | -1 | 0.3
CCN(CCn1cccn1)C(=O)c1cc(COc2cccc3cccnc23)on1 | 5 | x | -4% | 2 | -0.7
O=C(Cn1cnc2c(nnn2Cc2ccc(F)cc2)c1=O)N1CCCc2ccccc21 | -2 | -19 | -7% | 1 | 5.1
C=CCN1C(=O)[C@@H]2Cc3c([nH]c4ccccc34)C(c3cc(OC)c(OC)c(OC)c3)N2C1=S (some centres not stated) | x | x | x | 35 | 0.2
COCc1ccc(C(=O)N2CCCCC2C(=O)Nc2ccc(-n3nc(C)cc3C)cc2)o1 (configuration not stated) | x | x | x | -4 | 2.7
O=C(NCCOc1ccc(Cl)cc1)C(=O)NCC1CCCO1 (configuration not stated) | -1 | x | -5% | -2 | -2.0

The list is partial. The share of hits here may be higher or lower than overall.
